Screens (PubChem)
Choline anaer gr: inhibitors of anaerobic choline-dependent gram-negative bacterial growth | AID 1963822 | Gram-negative bacterium anaerobic choline minimal medium, absorbance growth; stronger effect = lower value; many inactives read as strong as hits in the columns shown | calls only | 55,000 tested, 0.2% active;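 active means growth z-score on choline under -2 at 7 or 20 h with little or no fall on glycerol, limits in tiers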;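 further: stock transfer was 300 nL into about 50 µL; the organism is E. coli; final concentration not given here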
Choline anaer gr early: also measured in Choline anaer gr; calls as there; z-score; measured here: choline growth z-score, timepoint 1;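 score of optical density at 7 h as mean of two plates; lower means less growth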
An asterisk follows results filed as active; i = inactive.

1: Cc1cc(C(=O)Nc2cccc(Cl)c2C)no1
2: COc1ccccc1NC(=O)CSc1nc(-c2ccccc2)nc2cc(=O)[nH]n12
3: O=C(C1CCN(S(=O)(=O)c2ccc(-c3noc(C4CC4)n3)cc2)CC1)N1CCc2ccccc21
4: COc1ccc(Br)cc1C1CC(=O)Nc2c1c(C)nn2-c1ccc2nnc(C)n2n1 (stereo unspecified)
5: Cc1ccc(NC(=O)NC(Cc2ccccc2)Cc2ccc3c(c2)OCO3)cc1 (stereo unspecified)
6: O=C(Cn1cc(-c2nnc(CN3CCCCC3)o2)c2ccccc21)Nc1ccc(F)cc1
7: CCOC(=O)C1CCN(C(=O)c2cc3c(=O)[nH]c4ccccc4c3s2)CC1
8: CCOC(=O)c1cc2ccccc2n1CC(=O)c1ccccc1

| entry no. | 1 | 2 | 3 | 4 | 5 | 6 | 7 | 8 |
| --- | --- | --- | --- | --- | --- | --- | --- | --- |
| Choline anaer gr | i | i | i | i | i | i | i | i |
| Choline anaer gr early | -0.86 | 1.6 | -0.09 | 0.29 | 0.79 | -0.63 | -0.96 | 0.42 |

9: Nc1ccn(C2CSC(CO)O2)c(=O)n1 (stereo unspecified)
10: O=C(Cc1ccc(F)cc1)N1CCN(c2nc3cc(Br)ccc3n3cccc23)CC1
11: COc1cccc(NC(=O)C2CCN(Cc3noc(-c4ccc(F)cc4)n3)CC2)c1
12: Cc1[nH]c(C)c(S(=O)(=O)N2CCOCC2)c1-c1nnc(C2CCC2)o1
13: Cc1ccc(CSc2nc3c(c(=O)[nH]2)C(c2ccc(O)c(O)c2)CC(=O)N3)cc1 (stereo unspecified)
14: Cc1ccc(Cn2cccc2CNS(=O)(=O)c2ccc(C)cc2)cc1
15: CCOC(=O)c1ccccc1NC(=O)CSc1nccn1-c1cc(C)ccc1C
16: Cc1cc(C)cc(OC(C)C(=O)Nc2ccc3c(c2)NC(=O)CO3)c1 (stereo unspecified)

| entry no. | 9 | 10 | 11 | 12 | 13 | 14 | 15 | 16 |
| --- | --- | --- | --- | --- | --- | --- | --- | --- |
| Choline anaer gr | i | i | i | i | i | i | i | i |
| Choline anaer gr early | -0.79 | 1.7 | 0.83 | -0.77 | 0.7 | -0.17 | 1.1 | 0.57 |

17: O=C(CSCc1ccc(F)cc1)Nc1cccc2nsnc12
18: CCOC(=O)c1cc(S(=O)(=O)N2CCCC2C(=O)NC2CCCC2)cn1C (stereo unspecified)
19: O=S(=O)(c1ccc(Cl)cc1)c1ccc(N2CCN(c3ncccn3)CC2)nn1
20: Cc1nc2nc(-c3ccccc3)nn2c(C)c1CC(=O)N1CCC(C)CC1
21: O=C(Nc1ccccc1)c1cnn2c1NC(c1ccccc1)=CC2c1ccccc1 (stereo unspecified)
22: Nc1nc(OCc2ccccc2)c2[nH]cnc2n1
23: Cc1nc(-c2cc(S(=O)(=O)N3CCC(C(=O)N4CCOCC4)CC3)c(C)s2)no1
24: O=C(Cn1nc2c(N3CCOCC3)nc3ccccc3n2c1=O)N1CCCc2ccccc21

| entry no. | 17 | 18 | 19 | 20 | 21 | 22 | 23 | 24 |
| --- | --- | --- | --- | --- | --- | --- | --- | --- |
| Choline anaer gr | i | i | i | i | i | i | i | i |
| Choline anaer gr early | -0.21 | -1.4 | 0.19 | 0.35 | 1.2 | 0.06 | -0.65 | -0.15 |

25: CC(C)CC(=O)Nc1ccc2nc(SCC(=O)N3CCCC3)sc2c1
26: N#Cc1nc(-c2ccc(S(=O)(=O)N3CCCC3)cc2)oc1NCC1CCCO1 (stereo unspecified)
27: C#CCN1C(=O)C(c2c(-c3ccc(Cl)cc3)[nH]c3c2c(=O)n(C)c(=O)n3C)c2ccccc21 (stereo unspecified)
28: O=S(=O)(c1ccc(F)cc1)N1CCC2(CC1)Nc1ccc(Cl)cc1-n1cccc12
29: CC(C)Sc1cc2c(cc1NC(=O)c1ccccc1Cl)n(C)c(=O)n2C
30: O=C(CN1C(=O)COc2ccc(C(=O)N3CCCC3)cc21)N1CCN(c2ncccn2)CC1
31: CCc1nnc(-c2ccc(S(=O)(=O)N3CCN(CC(C)C)CC3)o2)o1
32: Cc1cc(C)c(S(=O)(=O)N2CCCC2c2ccc(Cl)cc2)cc1C (stereo unspecified)

| entry no. | 25 | 26 | 27 | 28 | 29 | 30 | 31 | 32 |
| --- | --- | --- | --- | --- | --- | --- | --- | --- |
| Choline anaer gr | i | i | i | i | i | i | i | i |
| Choline anaer gr early | -1.6 | 0.45 | -0.85 | 0.11 | -0.11 | 0.99 | -0.38 | 3.6 |

33: Cn1c(=O)c2nc(S(=O)(=O)CCC(=O)O)n(C)c2n(C)c1=O
34: CCOc1ccc2ccccc2c1C(=O)N[C@@H]1C(=O)N2[C@@H]1SC(C)(C)[C@@H]2C(=O)O
35: CCCc1ccc(S(=O)(=O)N2CCN(c3ccc(=O)n(-c4ccc(F)cc4)n3)CC2)cc1
36: C=CCNC(=O)c1cc(-c2ccccn2)nc2ccc(S(=O)(=O)N3CCOCC3)cc12
37: O=S(=O)(c1ccc(Cl)cc1)c1nc(-c2ccccc2)oc1NC1CC1
38: O=C1C(O)=C(c2ccccc2)C(c2ccc(Cl)cc2)N1Cc1ccc(F)cc1 (stereo unspecified)
39: N[C@@H](C(=O)N[C@@H]1C(=O)N2C(C(=O)O)=C(Cl)CC[C@H]12)c1ccccc1
40: Cc1ccc2c(=O)c(C(=O)c3ccccc3)cn(CC(=O)NCC3CCCO3)c2n1 (stereo unspecified)

| entry no. | 33 | 34 | 35 | 36 | 37 | 38 | 39 | 40 |
| --- | --- | --- | --- | --- | --- | --- | --- | --- |
| Choline anaer gr | i | i | i | i | i | i | i | i |
| Choline anaer gr early | 0.45 | 0.89 | 0.97 | 0.2 | -0.72 | 0.72 | -0.58 | 0.26 |

41: Brc1ccc(-c2ccc(CNCc3ccco3)o2)cc1
42: O=c1[nH]c(SC2CCCC2)nc2c1cnn2CCO
43: CCCCN(CC)C(=O)Cn1cc(-c2nc(-c3ccc(Cl)cc3)no2)ccc1=O
44: Cc1csc(NC(=O)C2CCCN(S(=O)(=O)c3cc(-c4noc(C5CCC5)n4)sc3C)C2)n1 (stereo unspecified)
45: CCn1c(=O)c(-c2noc(CCC(=O)Nc3ccc(F)cc3F)n2)nn(-c2ccccc2)c1=O
46: COCCNC(=O)C1Cc2ccccc2CN1S(=O)(=O)c1ccc(C2CCCCC2)cc1 (stereo unspecified)
47: O=C(NCc1ccc2c(c1)OCO2)c1cc(-c2cccnc2)on1
48: Cc1cccc(S(=O)(=O)Nc2cccc(-c3cn4c(C)cccc4n3)c2)c1

| entry no. | 41 | 42 | 43 | 44 | 45 | 46 | 47 | 48 |
| --- | --- | --- | --- | --- | --- | --- | --- | --- |
| Choline anaer gr | i | i | i | i | i | i | i | i |
| Choline anaer gr early | -1 | -1.6 | -0.11 | 0.78 | -0.94 | 0.07 | 1.3 | 0.59 |

49: CCC(C(=O)NCCc1c[nH]c2ccc(OC)cc12)n1nc(C)c2nn(-c3ccccc3)c(C)c2c1=O (stereo unspecified)
50: Fc1ccccc1-c1ccc(CNCc2ccccn2)o1
51: Cn1c(=O)n(CCN2CCOCC2)c(=O)c2c1nc1n2CCCN1c1ccccc1
52: CCCNCc1cc(=O)n2[nH]c(-c3ccc(C(C)(C)C)cc3)nc2n1
53: Cc1cc(C)nc(NC(c2ccc(Cl)cc2)c2cc(C)sc2NC(=O)c2ccccc2)n1 (stereo unspecified)
54: CCN1CCN(CCCNC(=O)c2cc3c(s2)-c2c(C)nn(-c4ccccc4)c2CC3)CC1
55: Cc1ccc(-c2noc(CSc3nccn3-c3ccccc3)n2)cc1
56: COC(=O)c1sccc1NC(=O)N1CCC(N2CCN(Cc3ccc(F)cc3)C(=O)C2=O)CC1

| entry no. | 49 | 50 | 51 | 52 | 53 | 54 | 55 | 56 |
| --- | --- | --- | --- | --- | --- | --- | --- | --- |
| Choline anaer gr | i | i | i | i | i | i | i | i |
| Choline anaer gr early | -0.15 | -1 | 0.03 | -0.09 | 0.66 | -0.27 | -0.88 | -0.95 |

Going on with the list:
Values run as follows: Choline anaer gr | Choline anaer gr early
#57 Cc1cc2c(cc1S(=O)(=O)NCCc1ccc(Cl)cc1)OCC(=O)N2
  i | 0.27
#58 CCSc1nn2c(=O)cc(CSc3nc4ccccc4s3)nc2s1
  i | -0.19
#59 CCOc1ccc(-c2ccc(OCCNC(=O)c3cc(C)cc(C)c3)nn2)cc1
  i | 0.85
#60 O=C(NC1CC1)C1CCN(c2ccc(Sc3ccc(Cl)cc3)nn2)CC1
  i | 0.55
#61 CN1C(=O)CSc2ccc(C(=O)NC3CC3)cc21
  i | -0.8
#62 CN(Cc1ccccc1)C(=O)CSCc1nc2cccnc2n1C1CCCCC1
  i | 1.6
#63 O=S(=O)(NC1CCCCCCC1)c1cnc[nH]1
  i | 0.52
#64 c1ccc(CSc2nccn3nc(-c4ccccc4)cc23)cc1
  i | -0.45
#65 COc1ccc(CCNC(=O)CCC2=NS(=O)(=O)c3ccccc3N2)cc1OC
  i | -0.84
#66 CC(C)NC(=O)c1ccc2c(c1)nc(CN1CCN(S(=O)(=O)c3ccc4c(c3)CCC4)CC1)n2C
  i | -1.1
#67 CN(CC(=O)NC1CCCc2ccccc21)S(=O)(=O)c1ccc2c(c1)C(=O)NCC(=O)N2 (stereo unspecified)
  i | -0.25
#68 O=C(Cn1c2ncccc2c(=O)n1-c1ccccc1)Nc1cc(F)ccc1F
  i | -0.98
#69 COC(=O)Cn1c(C)cc(=O)n2nc(-c3cccc(C)c3)nc12
  i | 0.46
#70 CCc1ccc(CN2CCCC2c2c(C)noc2CC)cc1 (stereo unspecified)
  i | -1.4
#71 CC(C)Sc1cc2c(cc1NC(=O)c1cccc(F)c1)n(C)c(=O)n2C
  i | -0.94
#72 COc1ccccc1N1C(=O)N(c2ccccc2)C2CS(=O)(=O)CC21 (stereo unspecified)
  i | 0.4
#73 O=S(=O)(c1ccc2c(c1)NCCS2)N1CC=C(c2ccccc2)CC1
  i | 0.37
#74 Cc1cccc(-c2cnc(N3CCC(C(=O)NC4CCCC4)CC3)nc2)c1
  i | -0.31
#75 COc1cc(NC(=O)N2CCN(c3cc(N(C)C)nc(C)n3)CC2)cc(OC)c1
  i | 0.95
#76 CCn1c(CN2CCN(C(C)=O)CC2)nc2cc(NC(=O)C3CCCCC3)ccc21
  i | 0.27
#77 CCOC(=O)C1CCN(C(=O)Cc2nnc(-c3sccc3C)o2)CC1
  i | -0.39
#78 CCOc1ccc(CN2CCCC2c2ccc(Cl)cc2)cc1OCC (stereo unspecified)
  i | -0.03
#79 CCCCNC(=O)CSc1n[nH]c(-c2ccccc2Cl)n1
  i | -1.7
#80 CN(C)c1cccc(C(=O)N2CCN(C)c3ccccc32)c1
  i | -0.12
#81 CN(C)CCCn1c(=O)c2cnc(-c3ccc(Cl)cc3)nc2n(C)c1=O
  i | -1.3
#82 CCc1nnc(-c2csc(S(=O)(=O)N3CCCC3)c2)o1
  i | -0.62
#83 Cc1sc2c(=O)n(C3CC3)cnc2c1C(=O)N1CCC2(CC1)OCCO2
  i | 0.24
#84 COc1cccc(-n2c(C)cc(CN)c2C)c1
  i | -1.8
#85 CC1CCN(S(=O)(=O)c2ccc3c(c2)CCC(=O)N3CC(=O)N2CCc3ccccc32)CC1
  i | -0.2
#86 CCOc1ccc(OCC)c(NC(=O)CCc2c(C)nn(-c3cc(N(C)C)ncn3)c2C)c1
  i | 1.2
#87 Cc1ccc(-n2nnc(C(=O)Nc3ccc(C)c(Cl)c3)c2N)cc1C
  i | 0.97
#88 CCCC(=O)Nc1cnc(N2CCNCC2)c(C(=O)N2CCC(C(=O)OCC)CC2)c1
  i | 0.98
#89 CCCCCn1c(=O)[nH]c2cc(C(=O)N3CCC(Cc4ccccc4)CC3)ccc2c1=O
  i | 1.1
#90 COc1ccc(-n2nnnc2C(C)(C)Nc2ccc(C(C)C)cc2)cc1OC
  i | -0.27
#91 Cn1c(C(=O)NC2CCCCC2)cc2c(=O)oc3ccccc3c21
  i | -0.57
#92 CCn1nccc1C1CCCN1C(=O)Nc1ccsc1C(=O)OC (stereo unspecified)
  i | 0.6
#93 CC(C)NC(=O)N1CCCC(c2cccc(C(=O)NCCC3=CCCCC3)c2)C1 (stereo unspecified)
  i | 0.36
#94 CN1C(=O)COc2cc(-c3noc(C(=O)NCc4ccccn4)n3)ccc21
  i | 0.47
#95 CCCN(CCC)CCNC(=O)C1CCCN1c1nnc(N2CCCC2=O)s1 (stereo unspecified)
  i | 0.13
#96 CC(C)(C)C(=O)Nc1cccc(N2CCn3c(nc4cc(Cl)ccc43)C2)c1
  i | 1.1
#97 O=C1CCCN1c1ccc(S(=O)(=O)Nc2ccc3[nH]c(=O)sc3c2)cc1
  i | 0.39
#98 CS(=O)(=O)c1nc2ccc(NS(=O)(=O)c3cc(F)ccc3F)cc2s1
  i | -0.13
#99 Cc1cccc(-c2cc(N3CCC(C(=O)NC4CCCc5ccccc54)CC3)ncn2)c1 (stereo unspecified)
  i | -0.82
#100 CCSc1ncc(Cl)c(C(=O)N(Cc2ccc(Cl)cc2)C2CCS(=O)(=O)C2)n1 (stereo unspecified)
  i | 0.6
#101 COc1ccc(N2CCN(c3cc(C(=O)O)c4cc(NS(=O)(=O)N(C)C)ccc4n3)CC2)cc1
  i | 0.13
#102 CCN1CCN(C(=O)NC(C(=O)NC2C(=O)N3C(C(=O)O)=C(CSc4nnnn4C)CS[C@H]23)c2ccc(O)cc2)C(=O)C1=O (stereo partly specified)
  i | -2.8
#103 O=c1[nH]c2cc(Cl)ccc2c(O)c1-c1cccc(Oc2ccccc2)c1
  i | 1.1
#104 Cc1cc2nc(CSc3nnc(NC(=O)Nc4cccc(Cl)c4)s3)cc(=O)n2o1
  i | 0.03
#105 CC(Oc1ccccc1)c1nc(-c2ccc(S(=O)(=O)N3CCCC3)cc2)no1 (stereo unspecified)
  i | -0.72
#106 Cc1ccc(OCC(=O)Nc2ccc3c(c2)NC(=O)CO3)cc1
  i | -0.56

This is a subset; the hit share may differ from the screen's.
